High-throughput results from PubChem BioAssay.
TRPV1 potentiator – potentiators of human vanilloid receptor 1 (TRPV1); AID 540277; TRPV1-expressing cells, Fluo-8 calcium influx, capsaicin EC20 potentiation; host cell line not named in the record; control for the full effect not named in the record; actives 0.02% (n = 320,000); potentiation, % at 8.33 µM; active means potentiation above 80%; inconclusive means 30% to 80%; inactive means below 30%; also: 0% is about no effect
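TRPV1-expressing cells were cultured overnight at 35.5C and loaded with Fluo-8 calcium dye for 40 to 90 min at room temperature. After a 10 s baseline, compound was added and calcium influx was read kinetically for 3 min (ex 480/em 520 nm).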
TRPML1 inh – blocks the human TRPML1 channel; Q9GZU1; TRPML1-inducible cells, Ca2+ dye fluorescence, FDSS; active compounds read low; inhibition of EC80 agonist-evoked calcium signal; activity change, negative = inhibition, % (test concentration not listed); actives 0.02% (n = 390,000); AID 624415; in the data active means activity change below about -50%; inconclusive means about -30% to -50%; inactive means above about -30%;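 also: stimulus is agonist 54-4 at its EC80 concentration; % is scaled to controls: 0 for no effect and ±100 for the full control effect; compound concentration not given in the record; the text of the record puts the active cut at -80%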
Target sequence (Q9GZU1 whole entry, looked up): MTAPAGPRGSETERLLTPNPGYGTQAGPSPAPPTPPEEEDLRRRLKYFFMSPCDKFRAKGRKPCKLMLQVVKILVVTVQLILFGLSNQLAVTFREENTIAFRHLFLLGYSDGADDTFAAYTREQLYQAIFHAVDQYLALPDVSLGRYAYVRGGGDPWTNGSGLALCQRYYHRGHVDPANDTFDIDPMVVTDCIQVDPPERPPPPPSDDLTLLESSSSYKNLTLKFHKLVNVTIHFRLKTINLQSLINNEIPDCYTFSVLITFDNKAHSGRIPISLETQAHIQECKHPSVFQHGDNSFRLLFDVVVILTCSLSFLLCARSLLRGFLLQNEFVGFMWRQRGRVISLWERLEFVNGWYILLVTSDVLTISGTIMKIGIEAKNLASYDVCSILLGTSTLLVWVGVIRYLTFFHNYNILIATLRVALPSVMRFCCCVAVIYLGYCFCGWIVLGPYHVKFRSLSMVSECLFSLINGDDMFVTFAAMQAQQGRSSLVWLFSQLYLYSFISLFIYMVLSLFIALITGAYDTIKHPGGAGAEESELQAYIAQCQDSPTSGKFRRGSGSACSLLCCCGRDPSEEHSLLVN
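TRPML1-DL cells, Tet-induced overnight (~16 h, 37 °C) at 1,500 cells/well, were loaded with Ca8 no-wash dye plus quencher for 45-90 min at room temperature. Compounds were pinned during FDSS kinetic reading; agonist 54-4 at EC80 (4 uM final) then added.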
gsp antag – antagonizes gsp, the McCune-Albright syndrome mutation; gsp-mutant cells, cAMP HTRF, 30 min; control for the full effect not named in the record; actives 0.4% (n = 340,000); Potency, µM (series often up to 76.9 µM), inactives show at the top dose activity change, negative = inhibition, usual class: inhibitors; active = falling curve of any shape with a large fitted effect; inconclusive = falling curve, mostly with a smaller effect; inactive = flat or rising curve; cell line not stated here;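 also: intracellular cAMP measured with PDE inhibitor Ro 20-1724 present during compound exposure; potency is read from the fitted curve at half-maximal effect; % is scaled to controls: 0 for no effect and ±100 for the full control effect; nearly all actives have a fitted effect of over 65% in size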
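Cells, 2000/well, grown 16–24 h in DMEM 10% FBS with 0.5 mg/ml G418, then compounds plus […] (300 uM addition stock), 30 min at 37C. cAMP read by HTRF (cAMP-d2 and anti-cAMP antibody-K in lysis buffer) after 30 min RT.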
Sfp PPTase inh – inhibitors of Bacillus subtilis Sfp phosphopantetheinyl transferase. Biochemical Sfp PPTase activity, qHTS. Q9F4F7. AID 1490. Potency, µM, for the others: max response, negative = inhibition, usual class: inhibitors. actives 3.5% (n = 310,000); active = well fitted inhibition curve with a large enough effect; inconclusive = small, poorly fitted or top-dose-only effect, or another doubt; inactive = no such curve, though single readings can be large or run the other way;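 also: the enzyme is Sfp with the accession as filed and its product quenches rhodamine fluorescence; potency is read from the fitted curve at half-maximal effect; 0% = enzyme reaction without inhibitor and -100% = no enzyme wells; top concentration of the series not given in the record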
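Step 1, compound plus 15 nM Sfp-PPTase, 15 min, room temperature. Step 2, add rhodamine-CoA (5 uM) and BHQ-2-YbbR (12.5 uM). Step 3, read 525/598 nm fluorescence at 0 and 30 min.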
ClpP mod – qHTS Assay for Activators of ClpP; ATP-dependent Clp protease proteolytic subunit (Bacillus subtilis (strain 168)), P80244; purified B. subtilis ClpP, FRET peptide cleavage, 20 min; Potency, µM (series often up to 57.5 µM), without a hit: at the top dose activity change, negative = active; actives 1.9% (n = 340,000); active = well fitted falling curve with a large enough effect; inconclusive = small, poorly fitted or top-dose-only effect; inactive = no such curve, though single readings can be large or run the other way; also: potency is read from the fitted curve at half-maximal effect; the source files actives as falling curves though it sought activators and does not explain the sign; nearly all actives have a fitted effect of over 65% in size; many hits overshoot -100%
Target sequence (P80244 whole entry, looked up): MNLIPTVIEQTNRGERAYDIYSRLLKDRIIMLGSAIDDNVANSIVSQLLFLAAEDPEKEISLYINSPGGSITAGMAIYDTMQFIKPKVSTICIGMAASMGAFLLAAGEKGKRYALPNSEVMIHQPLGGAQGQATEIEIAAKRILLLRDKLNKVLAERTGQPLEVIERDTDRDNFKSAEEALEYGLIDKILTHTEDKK
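ClpP 10 microg/mL final, pH 8 Tris/KCl buffer with BSA, glycerol, Tween-20; compound pinned in; FRET-FV substrate; RT 20 min; Ex320/Em430; ΔFRET vs ADEP 5.8 microM, DMSO, no enzyme.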
Menin-MLL FL inh – menin-MLL binding inhibition, fluorescein peptide; FP activity change, % at 61.4 µM; AID 1766; 290,000 tested, under 10 active; Fluorescence polarization, fluorescein-MLL peptide displacement from menin; inconclusive = falling polarisation curve, or a change in total fluorescence; inactive = total fluorescence flat and polarisation flat or rising; no compound was filed as active; the % refers to the polarisation; negative = inhibition;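 also: % of control where 0% means no effect; inhibitors lower the polarisation; unlabelled MLL peptide was the positive control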
gsp agonist – activates gsp, the McCune-Albright syndrome mutation; AID 624287; Potency, µM (doses to about 76.9 µM), for inactives: at the highest dose activation (cAMP increase), most hits filed as activators; gsp mutant cells, cAMP HTRF, 30 min; control for the full effect not named in the record; actives 0.13% (n = 340,000); active = well fitted activation curve with a large enough effect; inconclusive = small, poorly fitted or top-dose-only effect, or another doubt; inactive = no such curve, though single readings can be large or run the other way; cell line not stated here;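 also: phosphodiesterase inhibitor Ro 20-1724 added with compounds to block cAMP breakdown; potency is read from the fitted curve at half-maximal effect; nearly all actives have a fitted effect of over 60% in size; about a fifth of the inactives were tested at one dose only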
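Cells in DMEM/10% FBS with G418 were pretreated with compounds in DMSO plus […] (300 uM stock) for 30 min at 37C. cAMP was measured by HTRF (cAMP-d2 plus anti-cAMP antibody-K) after 30 min at room temperature.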
* = called active by the depositor; ? = inconclusive; . = no result given; [ ] = another dose, or the depositor's remark.

SMILES	TRPV1 potentiator	TRPML1 inh	gsp antag	Sfp PPTase inh	ClpP mod	Menin-MLL FL inh	gsp agonist
CCOC(=O)C1CN(S(=O)(=O)c2cc(OC)ccc2OC)C1	?	-3	-6%	4%	0.4%	0.1	11%
CN(C(=O)c1ccc(OC2CCN(CCc3ccccc3)CC2)cc1)C1CCOC1 (stereo not given)	12	-6	11%	20%	.	-0.1	-9%
CCOCCN(C(=O)COC)c1cccc(OC)c1	10	0	-1%	9%	-1.1%	0.8	-8%
CCCCCC(O)C=CC1C(O)CC(O)C1CC=CCCCC(=O)O (stereo not given)	.	-10	.	.	-1.3%	.	?
OC(CNCc1ccco1)COc1ccccc1 (stereo not given)	4	58	-3%	19%	14µM*	2.7	-23%
CC1CCCC(C)N1C(=O)COC(=O)CNC(=O)c1ccccc1 (stereo not given)	-3	-3	8%	.	0.6%	.	-38%[inhibitor]
CC(=O)Nc1ccccc1NC(=O)C/C(C)=N/NC(=O)C1CCCCC1	29	-6	18%	9%	0.4%	3.6	-8%[15.4 µM]
CN(C(=O)CC1C(=O)NCCN1Cc1ccoc1)C1CCOCC1 (stereo not given)	15	11	2%	5%	.	-3.3	1%[15.4 µM]
O=C(Cc1ccc(Br)cc1)N1CCN(c2ccccc2O)CC1	?	4	-4%	1%	2.5%	1.7	-44%[inhibitor]
CC(C)(C)C(=O)Nc1ccnc(-c2cccnc2)n1	-6	.	.	27%	.	-1.0	.
OC1COC(OCc2ccccc2)C(O)C1O (stereo not given)	24	6	7%	-8%	.	3.0	-17%
CN(Cc1ccccc1)C(=O)c1[nH]cnc1C(=O)NCc1ccc(CNC(=O)OC(C)(C)C)cc1	8	20	-17%	.	0.7%	.	.
CC(C)CC(=O)Nc1ccnn1C1CCN(C(=O)c2ccc(Cl)cc2F)CC1	-2	21	-2%	9%	-1.0%	0.3	?
CCOC(=O)c1c(C)[nH]c(C(=O)OCc2ccc([N+](=O)[O-])cc2)c1C	-6	-12	-1%	20%	-2.8%	.	37%
CCCNC(=O)c1ccc2c(c1)ncn2-c1cc(C)cc(C)c1	-11	9	?	15%	.	0.5	3%[15.4 µM]
CCN(C(=O)c1c(C)cc(=O)oc1C)c1ccc2c(c1)OCO2	5	-8	-4%	19%	-1.1%	0.5	3%
COc1cccc(CC(=O)Nc2ccc(S(=O)(=O)N3CCOCC3)cc2)c1	0	-3	3%	.	.	.	-35%[15.4 µM]
c1ccc2c(CNn3cnnc3)cccc2c1	16	5	-1%	11%	0.8%	-0.4	-1%
Cc1[nH]nc2ncc(C(=O)c3ccccc3O)cc12	-2	24	-11%	3%	0.9%	2.9	26%
O=C(COc1ccc(Cl)cc1)NCCCn1ccnc1	23	8	13%	5%	1.5%	1.7	4%
O=C(Nc1ccc(-c2cn3ccccc3n2)cc1)c1ccco1	9	-9	-7%	6%	?	1.5	3%
CCn1c(=O)c(C(=O)NCc2ccc(F)cc2)c(O)c2ccccc21	1	3	8%	0%	.	-2.9	-61%[inhibitor]
O=CN1CCN(C(=O)c2cccc3c2-c2ccccc2C3=O)CC1	2	0	-1%	2%	-0.5%	0.8	-31%[inhibitor]
O=C(Nc1ccccc1)N1CCN(c2cccc(C(F)(F)F)c2)CC1	-2	21	-18%	3%	-0.2%	2.8	20%
O=S(=O)(Cc1ccccc1)NCC1CCCN(Cc2ccc(F)c(F)c2)C1 (stereo not given)	-11	1	10%	6%	.	-5.4	1%
(cont.)
SMILES	TRPV1 potentiator	TRPML1 inh	gsp antag	Sfp PPTase inh	ClpP mod	Menin-MLL FL inh	gsp agonist
CCOc1cc(-c2nc(-c3ccc(C)nc3OCC)no2)cc(OCC)c1OCC	3	10	5%	6%	-22%	0.4	-36%
O=C(NCc1ccc(F)cc1)C1C2C=CC3(CN(Cc4cccnc4)C(=O)C13)O2 (stereo not given)	-21	-7	7%	-2%	1.5%	0.9	20%
Cn1nc(C(=O)OCc2ccc(F)cc2)c2ccccc2c1=O	1	5	-10%	11%	-1.6%	2.1	4%[15.4 µM]
Cc1ccc(NC(=S)NNC(=S)NCc2ccccc2)cc1	18	11	7%	56µM*	-2.1%	4.8	?
COc1cc(S(=O)(=O)NC2CCSc3ccccc32)ccc1NC(C)=O (stereo not given)	-43	15	10%	11%	0.2%	?	21%
Cc1csc(N(C(=O)c2ccc(S(=O)(=O)N(C)C)cc2)c2ccccc2)n1	4	2	1%	7%	0.4%	-1.8	-16%
O=C(c1ccccc1)c1ccc(N2CCOCC2)cc1	.	-11	-7%	.	1.7%	.	-2%
COc1cc(NC(=O)CSc2nnc3ccccn23)cc(OC)c1OC	.	-2	.	.	-5.3%	.	5%
CCN1CCN(C(=O)Nc2cccc3ccccc23)CC1	2	3	-2%	0%	11µM*	2.0	-41%
C=C1SC(Nc2c(C)cccc2C)=NC12CCCCC2	-17	-9	5%	-1%	.	0.0	14%[15.4 µM]
O=c1[nH]c2ccc(S(=O)(=O)NCc3ccccn3)cc2s1	-15	21	9%	-27%	-7.7%	-10	18%
CCCC(=O)c1c[nH]c(C(=O)NCc2ccco2)c1	13	6	-2%	12%	0.7%	-1.4	11%
O=C1c2ccccc2C(=O)N1c1ccc(-c2nc3ccccc3o2)cc1	2	.	.	20%	.	1.8	.
CCOC(=O)Nc1ccc2c(c1)Cc1cc([N+](=O)[O-])ccc1-2	.	-2	4%	.	0.5%	.	-5%[15.4 µM]
Cc1cc(Nc2cccc(F)c2)nc(-c2ccccc2O)n1	-3	15	-19%	6%	-5.0%	3.5	25%
CCCCCOc1ccc(C(=O)NC(CCC)C(=O)O)cc1 (stereo not given)	-6	16	2%	5%	-3.0%	2.1	-4%
COc1ccc(-c2nc(NC(=O)C3CC(=O)N(Cc4ccco4)C3)sc2C)cc1 (stereo not given)	-3	5	-17%	.	-3.1%	.	4%
Cc1nc(Cc2nnc(SCC(=O)N3CC(=O)Nc4ccccc43)o2)cs1	.	8	12%	.	.	.	-2%
O=C(NCCc1ccco1)C(=O)NCC1OCCCN1S(=O)(=O)c1ccc(F)cc1 (stereo not given)	5	1	-1%	3%	-1.4%	.	-4%
CCC(=O)Nc1ccc(NC(=O)Cc2ccccc2)cn1	-5	-4	5%	4%	-20%	-0.4	7%[15.4 µM]
Cc1cc(OC(C)C(=O)NCc2cccnc2)c2c(C)cc(=O)oc2c1 (stereo not given)	-3	43	5%	12%	3.3%	1.3	18%
O=C(O)CCCN=C1CCCc2ccccc2N1	-3	-1	5%	12%	0.3%	0.2	-2%
N#CC(C(N)=O)=C1CCC2(CC1)OCCCCO2	-9	-7	6%	9%	0.4%	1.6	8%
Cc1ccc(OCC(=O)c2cc(C)n(-c3ccccc3)c2C)c([N+](=O)[O-])n1	-6	3	-4%	-13%	-2.1%	4.8	4%
NC(=O)/C(=C/c1ccco1)C(N)=S	10	12	-19%	18µM*	0.0%	?	10%[15.4 µM]
Carrying on.
SMILES	TRPV1 potentiator	TRPML1 inh	gsp antag	Sfp PPTase inh	ClpP mod	Menin-MLL FL inh	gsp agonist
COc1cccc(/C=N/n2c(=S)n(C)c3cc(C)c(C)cc32)c1OC	9	-7	-12%	4%	1.7%	1.9	3%
FC(F)(F)COc1ccc(-n2ccnc2)nn1	5	-4	-3%	15%	0.4%	-1.6	7%[15.4 µM]
CCc1ccc(CCC(=O)Nc2nnc(C)s2)o1	-3	10	8%	-2%	-5.0%	2.0	8%
O=C(COc1ccc([N+](=O)[O-])cc1)Nc1cc(C(=O)O)cc(C(=O)O)c1	10	-8	.	17%	.	-8.0	12%[15.4 µM]
COc1cccc(C(=O)Nc2nnc(S(=O)(=O)N(C)Cc3ccccc3)s2)c1	20	5	-22%	14%	-12%	.	?
COC(=O)c1ccc(NC(=O)CSC2=NC(=O)C(c3ccccc3)C(=O)N2)cc1 (stereo not given)	?	0	11%	-2%	1.2%	7.8	-2%[15.4 µM]
Cc1c(Cl)c(=O)oc2cc(OCC(=O)NCc3cccs3)ccc12	2	15	-5%	15%	.	0.9	16%[15.4 µM]
CCOC(=O)c1sc(NC(=O)CS(=O)(=O)c2ccc(C)cc2)nc1C	-54	-4	.	4%	.	-3.1	-6%[15.4 µM]
O=c1c2cccnc2[nH]c(=S)n1CCCN1CCN(c2ccccc2F)CC1	5	-13	2%	6%	-1.5%	-4.2	10%[15.4 µM]
NC(=O)c1nsc(C(=O)N(CC(=O)NCc2ccc(F)cc2)Cc2ccco2)c1N	6	5	-3%	12%	?	3.4	2%
O=C(NCc1ccco1)C(c1ccccc1)N(C(=O)Cc1cccs1)c1cccnc1 (stereo not given)	3	-14	0%	12%	.	-0.8	0%[15.4 µM]
O=C1Nc2ccccc2/C1=C/c1cnc(-c2ccccc2)[nH]1	.	5	-15%	-4%	1.7%	?	-14%[15.4 µM]
Cc1ccc(C(=O)N2CCN(c3ccc(NC(=S)NC(=O)c4cccs4)cc3)CC2)cc1	15	-26	-9%	-2%	.	1.4	-22%
CC1(C)CNC(=O)c2sc(N3CCCCC3)nc2C1	2	3	7%	18%	-3.5%	3.6	8%
Cc1cc(Cl)ccc1NC(=O)Nc1c(C)n(-c2ccccc2)c(=O)n1C	0	-14	15%	12%	-1.5%	2.1	?
O=C1N=C(N2C=CC(=C3C=CNC=C3)C=C2)/C(=C/N=NC(=O)c2ccccc2O)S1	8	-9	?	-16%	-0.8%	.	38%
Cc1c(N=C2N=C(NC(=O)c3cccs3)c3ccccc32)c(=O)n(-c2ccccc2)n1C	0	-17	-11%	-13%	.	?	10%[15.4 µM]
CN1CCS/C1=C/C=C1/SC(=S)N(Cc2ccccc2)C1=O	4	-14	8%	?	-1.5%	.	27%
C=CCN(C(=O)c1csnn1)C(C(=O)NC1CCCCC1)c1ccc(C)cc1 (stereo not given)	-7	4	5%	17%	.	-3.5	-29%
C#CCOCCOCCOCCNc1nc(N2CCN(C(=O)Cn3cc(CCCCN)nn3)CC2)nc(N2CCN(C(=O)Cn3cc(CCCN=C(N)N)nn3)CC2)n1	14	-8	4%	.	-1.3%	.	.

Compounds as they come. About 4.9% of those tested had a hit in this group.
